Assay outcomes deposited in PubChem by National Center for Advancing Translational Sciences (NCATS).
VDR inhibitor = Inhibitors of the vitamin D receptor (VDR): qHTS; Vitamin D3 receptor (Homo sapiens), P11473; VDR-SRC2-3 peptide fluorescence polarization, 2 h; Potency, µM, for the others: max response, negative = inhibition, actives largely listed as inhibitors; hit rate 0.93% among 400,000; AID 504847, 2011; active = well fitted inhibition curve with a large enough effect; inconclusive = small, poorly fitted or top-dose-only effect, or another doubt; inactive = no such curve, though single readings can be large or run the other way; also: series mostly up to about 120 µM
Target sequence (P11473 whole entry, looked up): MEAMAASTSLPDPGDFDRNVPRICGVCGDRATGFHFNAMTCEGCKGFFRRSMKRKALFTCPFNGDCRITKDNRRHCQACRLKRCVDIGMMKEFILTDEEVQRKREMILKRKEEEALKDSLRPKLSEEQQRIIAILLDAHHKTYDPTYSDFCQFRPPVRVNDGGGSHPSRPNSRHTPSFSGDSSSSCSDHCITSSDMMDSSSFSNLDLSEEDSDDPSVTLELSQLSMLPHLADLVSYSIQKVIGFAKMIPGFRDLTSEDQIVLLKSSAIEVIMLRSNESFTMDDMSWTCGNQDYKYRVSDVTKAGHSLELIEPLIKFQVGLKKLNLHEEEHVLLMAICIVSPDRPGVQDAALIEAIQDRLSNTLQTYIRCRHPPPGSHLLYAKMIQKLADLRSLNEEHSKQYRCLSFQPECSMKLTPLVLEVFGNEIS
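Fluorescence polarization assay measuring small-molecule disruption of VDR binding to the coregulator peptide SRC2-3. Compounds were pin-transferred (23 nl) into the reagent mix and incubated 2 h at room temperature before reading.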
The depositor's hits bear a star; ? = inconclusive; & = joins results of further samples. % is scaled to controls: 0 for no effect and ±100 for the full control effect; potency is read from the fitted curve at half-maximal effect. Only part of the results is shown; count on the stated rates, not on these rows.

SMILES	VDR inhibitor
CCOc1ccc(S(=O)(=O)N2CCC(C(=O)NCc3ccncc3)CC2)cc1C	1%
CCOC(=O)c1sc2ccccc2c1S(=O)(=O)Nc1cccc(C(F)(F)F)c1	-9%
CC(C)CN=C(NS(=O)(=O)c1ccccc1)C(Cl)(Cl)Cl	?
Cc1cccc(-n2c(SCC(=O)Nc3nonc3C)nnc2-c2ccoc2C)c1	-2%
c1ccc(-c2cc(N3CCOCC3)nc(-c3ccccc3)n2)cc1	-4%
COc1ccc(-n2nc(C(=O)N3CCCC(C)C3)c3c4ccccc4n(C)c3c2=O)cc1Cl (configuration not stated)	7%
COc1ccccc1CCNC(=O)C(=O)c1cn(CC(=O)N2CCCC2)c2ccccc12	-20%
O=C(CSc1nnc(C2COc3ccccc3O2)o1)N1CCCCC1 (configuration not stated)	-13%
O=C(Nc1nccs1)C1CC(=O)N(Cc2ccco2)C1 (configuration not stated)	-19%
CCOC(=O)c1[nH]c2ccccc2c1NC(=O)c1cc(OCC)c(OCC)c(OCC)c1	-5%
CN1CCC2(CC1)CCN(C(=O)c1ccncc1)CC2	0%
Cc1cccc2cc(C(c3nnnn3C3CCCC3)N3CCOCC3)c(=O)[nH]c12 (configuration not stated)	-8%
CCOc1ccc(CCN2C(=S)N([C@@H](CC(C)C)CN3CCCC3CN3C(=S)NC[C@@H]3Cc3ccc(O)cc3)C[C@@H]2CC(C)C)cc1 (some centres not stated)	11%
CCC(=O)c1ccc(OC(=O)C2CCN(C3=NS(=O)(=O)c4ccccc43)CC2)cc1	24%
CCC(C)[C@@H](N)C(=O)N/N=C/c1ccc2ncccc2c1 (some centres not stated)	12%
NS(=O)(=O)c1ccccc1NC(=O)c1c(O)c2ccccc2[nH]c1=O	6%
Cc1ccc(-c2noc(C(C)NC(=O)c3ccco3)n2)cc1 (configuration not stated)	8%
Cc1ccccc1Cn1nnc2c(=O)[nH]c(C3CCCN(C(=O)c4ccc(C(C)(C)C)cc4)C3)nc21 (configuration not stated)	7%
CCn1c(C(c2ccccc2)c2ccccc2)n[nH]c1=S	12%
O=C1CC(c2ccccc2)C(C(=O)O)N1 (configuration not stated)	-18%
COc1cc(NC(=O)c2ccccc2[N+](=O)[O-])c(C(=O)O)cc1OC	12%
Nc1ncnc2c1ncn2[C@@H]1O[C@H](CNCc2ccc(-c3cc(C(F)(F)F)ccc3Cl)o2)[C@@H](O)[C@H]1O	28µM*
COc1cc(NC(=S)NCC2CCCO2)c(OC)cc1Cl (configuration not stated)	-12%
O=C(Cn1ccc2ccccc2c1=O)NCC1COc2ccccc2O1 (configuration not stated)	-2%
O=S(=O)(NCC(c1ccco1)N1CCN(c2ccccc2F)CC1)c1ccc(F)cc1 (configuration not stated)	-5%

Later entries
SMILES	VDR inhibitor
Cn1cnc2nc(Cl)nc(Cl)c21	21%
C=CCn1c(SCC(=O)N2CCOCC2)nnc1C(C)NC(=O)c1ccccc1 (configuration not stated)	-23%
COc1ccc(-c2cc(C(=O)Nc3cc(S(N)(=O)=O)ccc3C)c3ccccc3n2)cc1OC	-20%
COc1ccc(S(=O)(=O)N2CCN(C(=O)c3ccc(NC(C)=O)cc3)CC2)cc1	6%
O=C(Nc1ccccc1Sc1ccccc1)c1ccc(F)cc1	-9%
CC(C)(C)c1nnc(N/N=C/c2ccccc2O)n(N)c1=O	2%
COC(=O)c1ccncc1N	0%
Cc1ccc(C(=O)NCC(=O)Nc2cc(C)ccn2)cc1	?
CC1CC=CC2C1C(=O)N(Cc1ccccc1)C2c1ccc(Br)cc1F (configuration not stated)	-26%
CC(=O)c1cc2c(cc1NC(=O)CN1CCN(c3cccc(C(F)(F)F)c3)CC1)OCO2	12%
CCOc1ccccc1NC(=O)CSc1nnc(-c2cnccn2)n1CC	7%
O=C(O)c1cc(C(F)(F)F)nc2c(C(F)(F)F)cccc12	?
O=C(NCc1ccccc1)N(Cc1cc2cc3c(cc2[nH]c1=O)OCO3)CC1CCCO1 (configuration not stated)	-6%
COc1cc(C2C(C(=O)c3ccc(C)o3)=C(O)C(=O)N2c2cc(C)on2)ccc1O (configuration not stated)	-8%
O=C(NCc1ccc2c(c1)OCO2)c1cccc(S(=O)(=O)N2CCCC2)c1	6%
COc1ccc(C2CC(=O)C(C=NCCO)=C(O)C2)cc1 (configuration not stated)	-7%
CCOC(=O)C(C(=O)OCC)[C@@H]1CS(=O)(=O)C[C@H]1C(C(=O)OCC)C(=O)OCC	-12%
COc1ccc2oc(=O)c(C(=O)N3CCN(C(=O)c4ccco4)CC3)cc2c1	-13%
O=C1CC(=O)N2CCSC2=N1	6%
COc1cccc(NC(=O)c2oc3ccccc3c2NC(=O)Cc2cccc(C)c2)c1	-13%
O=C(CSc1nc2ccccc2nc1Cc1ccc(Cl)cc1)N1CCc2ccccc21	5%
COc1ccc(N(C(=O)CNC(=O)c2ccco2)C(C(=O)NCC2CCCO2)c2ccc(OC)c(OC)c2)cc1 (configuration not stated)	-9%
OC1(c2ccc(Cl)cc2)CCN(Cc2nc(-c3cnccn3)no2)CC1	6%
Nc1c(Br)cc2oc(-c3ccccc3)nc2c1Br	-3%
COc1ccc(CCCc2nnc(SCC(=O)Nc3ccc(Cl)cc3)o2)cc1	?

Next part:
SMILES	VDR inhibitor
Cc1cc(C)c2oc(=O)cc(CN3CCC(C)CC3)c2c1	1%
CC1CN(S(=O)(=O)c2cccc(C(=O)OC/C(O)=C(\C#N)c3nc4ccccc4[nH]3)c2)CC(C)O1 (configuration not stated)	-10%
Fc1ccc(-c2nnc(SCc3cccnc3)o2)cc1	3%
CCc1cccc(NC(=O)C(NC(=O)C2CCCCC2)C(C)C)c1 (configuration not stated)	1%
CCCCOc1ccc(C(=O)CCN2CCCCC2)cc1	4.5µM*
COc1ccc(NC(=O)COC(=O)CNC(=O)C2CCCCC2)cc1	12%
Nc1nnc(SCC(=O)NC23CC4CC(CC(C4)C2)C3)s1	5%
COc1ccc2[nH]c(=O)c(CN(C(=O)c3ccccn3)c3ccccc3)cc2c1	-2%
C=CCN1C(=O)/C(=C2/Sc3ccccc3N2C)SC1=Nc1c(C)n[nH]c1C	6%
CC1(CC(=O)NNC(=O)Nc2ccccc2)OCCCO1	5%
CCN1CCN(C(=O)C2CCC(=O)N(Cc3cccc(C(F)(F)F)c3)C2)CC1 (configuration not stated)	4%
NC(=O)c1ccccc1NC(=O)CN1CCCCCC1	-19%
CCCc1cc(C(N)=O)c(NC(=O)c2cc(C)on2)s1	-17%
Cc1ccc(C)c(NC(=O)CSc2nnc(C)n3c2cc2occc23)c1	4%
CCOc1ccccc1NC(=O)c1cc(-c2ccncc2)nc2c(Cl)cccc12	14%
C=CCOc1c(CNc2ccc3[nH]c(=O)[nH]c3c2)cccc1OC	-1%
O=C(NC1CC1(c1ccccc1)c1ccccc1)c1ccccc1 (configuration not stated)	-11%
COc1ccccc1OCc1n[nH]c(=S)n1Cc1ccccc1	-10%
NC(=O)CC(NC(=O)Cc1cccc2ccccc12)c1ccc(NC2CCCCCC2)c([N+](=O)[O-])c1 (configuration not stated)	-13%
COC1[C@H](OC(N)=O)C(O)[C@H](Oc2ccc3c(O)c(NC(=O)c4ccc(O)c(CC=C(C)C)c4)c(=O)oc3c2C)OC1(C)C (some centres not stated)	-3%
CCOC(=O)c1c(C)nc2ccccn12	13%
COc1cc(C2CC(=O)N(c3ccc(C)c(Cl)c3)C3=C2C(=O)OC3)cc(OC)c1OC (configuration not stated)	-23%
Cc1ccc(C)c(NC(=O)Cn2ccn(-c3ccc(F)cc3)c(=O)c2=O)c1	7%
COc1ccc(-c2cc3ccccc3n2CC(O)CN2CCCCC2)cc1 (configuration not stated)	-32%
O=C(NN=Cc1ccc(O)cc1O)c1ccccc1NS(=O)(=O)c1cccs1	3%

The list goes on.
SMILES	VDR inhibitor
Cc1ccc(CNC(=O)CSCc2ccc(F)cc2)cc1	-6%&-1%
CCC(=O)NC(=S)Nc1cccc(-c2nc3ncccc3o2)c1	-18%
COc1ccc(NC(=O)N2CCCC(c3nc(-c4ccc(C(C)C)cc4)no3)C2)cc1 (configuration not stated)	2%
Cc1ccc(S(=O)(=O)N2CCN(C(=O)CN3CCCSc4ccccc43)CC2)cc1	?
CCOc1ccccc1NC(=O)C1CCCCN1S(=O)(=O)c1ccc(F)cc1 (configuration not stated)	13%
CCOC(=O)C1=C(C)NC(c2ccccc2)=C(C(=O)OCc2ccc([N+](=O)[O-])cc2)[C@@H]1C#Cc1ccccc1	1%
Cc1cccc(-c2nc(C#N)c(N3CCC(C)CC3)o2)c1	0%
CN(c1cccc(NC(=O)CN(c2ccc(Cl)c(Cl)c2)S(=O)(=O)c2ccccc2)c1)S(C)(=O)=O	5%
OC(COC1CCCCC1)CN1CCN(c2ccccc2)CC1 (configuration not stated)	-6%
COc1ccc(NC(=O)CSc2nc(O)c(Cc3ccccc3)c(=O)[nH]2)cc1	8%
CC(=O)N1N=C(c2ccco2)CC1c1cccs1 (configuration not stated)	-12%
CCOC(=O)C1CCCN(C(=O)Cn2c(=O)c3cccn3c3cccnc32)C1 (configuration not stated)	12%
C=CCN1C(=O)/C(=C/C=C2/N(CC)c3ccc(S(=O)(=O)N(C)C)cc3N2CC)SC1=S	?
COc1ccc(Cc2n[nH]c(=S)n2Cc2ccccc2)cc1Cl	-14%
CCOc1ccc(-n2c(SCC(=O)Nc3ccc4c(c3)OCO4)nc3ccccc3c2=O)cc1	1%
O=C(Cn1cnc2c(cnn2-c2ccc(Cl)cc2)c1=O)NC1CCCCC1	-12%
COc1cccc(N/C(=N/C(=S)Nc2ccc(C)cc2C)Nc2nc(C)cc(C)n2)c1	19%
O=c1[nH]c(C2CC2)nc2sc3c(c12)CCCC3	-2%
CN(C)Cc1ccc(F)cc1Sc1cc(Cl)ccc1Cl	-7%
CCOC(=O)c1c(NC(=O)c2c(-c3ccccc3)noc2C)sc(C)c1-c1ccccc1	1%
CCOC(=O)C(NC(=O)Cc1ccccc1)(Nc1cc(C)on1)C(F)(F)F (configuration not stated)	3%
CCOC(=O)CSc1nc(C(C)(C)C)nc2ccccc12	10%
CCOC(=O)c1c(C)oc2ccc(OC(=O)N3CCOCC3)cc12	10%
COc1ccc(N2C(=S)N(C(=O)c3ccccc3)C(=Nc3ccccc3)C2=Nc2ccccc2)cc1	?
CCCCNC(=S)NC(=O)c1ccc(Cl)cc1Cl	13%

Further compounds:
SMILES	VDR inhibitor
Cc1cc(C)c(NC(=O)c2ccc3c(c2)C(=O)N(Cc2cccnc2)C3=O)c(C)c1	-22%
COc1ccc(S(=O)(=O)N(CC(=O)NCc2ccncc2)c2ccc(C)cc2)cc1OC	-4%
COc1ccc2c(c1OC)C(=O)N(c1ccc3c(c1)CCC3)C2=O	-9%
CCc1ccc(OCC(=O)NNC(=S)NC(=O)C2CCCCC2)c(Br)c1	6%
COc1cccc(CNC(=O)c2ccc3c(c2)nc2n3CCC(C)C2)c1 (configuration not stated)	14%
Cc1cccc(N=C2NN=C(c3ccccc3F)CS2)c1C	4%
Cc1ccccc1OCC(=O)N(CC(C)C)c1c(N)n(CC(C)C)c(=O)[nH]c1=O	-15%
COc1cc([N+](=O)[O-])ccc1NC(=O)NNC(=O)c1sccc1C	25%
CCOc1ccccc1CNC(=O)c1cc2oc3ccccc3c2n1CC	-13%&10%
O=C(CSC(=S)N1CCOCC1)Nc1nccs1	28%
O=C(NN1C(=O)C2C3CCC(O3)C2C1=O)c1ccco1 (configuration not stated)	-12%
C=CCc1ccccc1OCC(O)CN1CCN(c2ccc(C)cc2)CC1 (configuration not stated)	-10%
Cc1cc(/C=C2\SC(=S)NC2=O)c(C)[nH]1	-6%
O=C(COC(=O)C1COc2ccccc2O1)NC(=O)NC1CCCC1 (configuration not stated)	-2%
O=C1CCC([N+](=O)[O-])C(c2ccc(Cl)cc2)N1 (configuration not stated)	4%
CCOC(=O)c1c(-c2ccc(F)cc2)csc1NC(=O)CN1C(=O)NC2(CCCCC2C)C1=O (configuration not stated)	-14%
COc1ccccc1CNC(=O)CN(c1ccc(C)cc1)S(=O)(=O)c1c(C)n[nH]c1C	1%
CS(=O)(=O)N1CCCC(C(=O)NCCN2CCC(Cc3ccccc3)CC2)C1 (configuration not stated)	2%

Structures listed so far containing an aryl thioether with sulfur outside any ring:
SMILES	VDR inhibitor
Cc1cccc(-n2c(SCC(=O)Nc3nonc3C)nnc2-c2ccoc2C)c1	-2%
O=C(CSc1nnc(C2COc3ccccc3O2)o1)N1CCCCC1 (configuration not stated)	-13%
C=CCn1c(SCC(=O)N2CCOCC2)nnc1C(C)NC(=O)c1ccccc1 (configuration not stated)	-23%
O=C(Nc1ccccc1Sc1ccccc1)c1ccc(F)cc1	-9%
CCOc1ccccc1NC(=O)CSc1nnc(-c2cnccn2)n1CC	7%
O=C(CSc1nc2ccccc2nc1Cc1ccc(Cl)cc1)N1CCc2ccccc21	5%
COc1ccc(CCCc2nnc(SCC(=O)Nc3ccc(Cl)cc3)o2)cc1	?
Fc1ccc(-c2nnc(SCc3cccnc3)o2)cc1	3%
Nc1nnc(SCC(=O)NC23CC4CC(CC(C4)C2)C3)s1	5%
Cc1ccc(C)c(NC(=O)CSc2nnc(C)n3c2cc2occc23)c1	4%
COc1ccc(NC(=O)CSc2nc(O)c(Cc3ccccc3)c(=O)[nH]2)cc1	8%
CCOc1ccc(-n2c(SCC(=O)Nc3ccc4c(c3)OCO4)nc3ccccc3c2=O)cc1	1%
CN(C)Cc1ccc(F)cc1Sc1cc(Cl)ccc1Cl	-7%
CCOC(=O)CSc1nc(C(C)(C)C)nc2ccccc12	10%
